# NPR1 antag = human Npr1 receptor antagonism; P16066; HEK293 hNpr1 GloSensor cGMP, ANP-stimulated luminescence; AID 1347048; 76,000 tested, 1.6% active; Potency, µM (top dose mostly 46.3 µM), for the others: top-dose activity change, negative = inhibition, most hits filed as inhibitors; active = well fitted inhibition curve with a large enough effect; inconclusive = small, poorly fitted or top-dose-only effect; inactive = no such curve, though single readings can be large or run the other way;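 further: nearly all actives have a fitted effect of over 60% in size; nearly all hits also lower the signal before the agonist is added; a reference antagonist and vehicle were the controls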
# Target sequence (P16066 whole entry, looked up): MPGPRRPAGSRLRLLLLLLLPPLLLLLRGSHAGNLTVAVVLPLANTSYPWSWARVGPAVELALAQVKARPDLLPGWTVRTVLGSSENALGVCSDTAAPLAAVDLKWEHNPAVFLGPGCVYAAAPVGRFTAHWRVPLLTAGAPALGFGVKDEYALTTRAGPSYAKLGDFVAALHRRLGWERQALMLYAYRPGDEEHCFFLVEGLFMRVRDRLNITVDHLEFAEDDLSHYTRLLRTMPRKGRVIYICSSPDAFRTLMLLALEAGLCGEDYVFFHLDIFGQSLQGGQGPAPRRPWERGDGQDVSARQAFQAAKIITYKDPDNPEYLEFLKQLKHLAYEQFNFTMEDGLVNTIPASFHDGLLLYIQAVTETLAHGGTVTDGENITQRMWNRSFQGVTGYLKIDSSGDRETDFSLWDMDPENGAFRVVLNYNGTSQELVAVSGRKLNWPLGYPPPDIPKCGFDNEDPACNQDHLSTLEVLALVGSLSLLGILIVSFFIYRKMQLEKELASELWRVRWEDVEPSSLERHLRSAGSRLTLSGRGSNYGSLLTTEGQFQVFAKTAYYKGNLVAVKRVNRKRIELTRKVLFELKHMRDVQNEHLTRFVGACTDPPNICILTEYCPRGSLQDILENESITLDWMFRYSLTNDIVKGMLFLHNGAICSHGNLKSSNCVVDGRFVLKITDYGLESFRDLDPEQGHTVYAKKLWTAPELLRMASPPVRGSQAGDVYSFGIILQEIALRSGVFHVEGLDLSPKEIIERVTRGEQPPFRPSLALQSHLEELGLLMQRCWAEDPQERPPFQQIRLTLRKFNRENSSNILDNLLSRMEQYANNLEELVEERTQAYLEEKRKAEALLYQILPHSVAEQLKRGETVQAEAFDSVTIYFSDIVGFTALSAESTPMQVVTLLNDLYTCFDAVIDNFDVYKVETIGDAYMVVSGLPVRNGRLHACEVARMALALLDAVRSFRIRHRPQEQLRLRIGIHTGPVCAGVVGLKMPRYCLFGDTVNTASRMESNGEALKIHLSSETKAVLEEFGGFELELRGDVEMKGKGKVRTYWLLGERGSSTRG
#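 Compound pre-incubated 30 min at room temperature on GloSensor-loaded HEK293 cells stably carrying hNpr1 and the pGS-40F cGMP biosensor. Stimulation uses hNppA at 0.1 nM final; luminescence is taken at baseline and 20 min post-agonist.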
# Starred values were filed as active, the others as inactive; ? = inconclusive; & = joins results of further samples; [ ] = dose if it differs, or a comment. On the % scale 0 is the no-effect control and ±100 the full control effect; potency means the concentration at half of the fitted maximal effect. This is a subset; the hit share may differ from the screen's.
SMILES,NPR1 antag
CC1Oc2ccc(NS(=O)(=O)c3ccc(Cl)cc3)cc2CN(Cc2ccccc2F)C1=O (configuration not stated),?
O=C(CCC1CCCN(S(=O)(=O)c2ccc(F)cc2)C1)NCc1ccco1 (configuration not stated),4%
CCC[C@@H]1CN(C(=O)c2ccccc2-c2ccccc2F)C[C@H]1NC(C)=O,-8%
CN(CC1CCOCC1)C(=O)Nc1cc(F)cc(F)c1,-1%
O=C(c1ccc(F)c(Cl)c1)N1CCN(C(=O)c2nnn3c2COC(c2ccccc2)C3)CC1 (configuration not stated),13µM*
CC1=NS(=O)(=O)N(C)C=C1C(=O)OCc1nc(-c2ccc(C(F)(F)F)cc2)no1,10µM*
O=C(CN1CC2CC(C1)[C@H]1CCCC(=O)N1C2)NCc1ccccc1F (some centres not stated),2%
CC(C)n1cc(CN2CCCCCNC(=O)[C@@H]3CCC[C@@H]32)c2ccccc21,1%
Cn1cnc(C(=O)N2CCC(N3CC4CC(C3)[C@H]3CCCC(=O)N3C4)CC2)c1 (some centres not stated),4%
N#Cc1ccc(S(=O)(=O)NC2CCc3nn(CC4CC4)c(=O)n3CC2)cc1 (configuration not stated),-1%
CC(=O)N1CCCN(Cc2nc3c(n2Cc2ccccc2)C(=O)N(Cc2cccc(Cl)c2)CCN3)CC1,-3%
FC(F)(F)Oc1ccc(CNC2(Cc3cc(-c4ccccn4)on3)COC2)cc1,-2%[70.6 µM]
O=C(c1cnccn1)N1CCN(c2cc(-c3ccccc3)[nH]n2)CC1,5%
O=C(CCc1conc1-c1ccc(F)cc1)NCc1cccc(Br)c1,-2%
Fc1ccc(C2Cn3nnc(-c4nc(-c5ccncc5)no4)c3CO2)cc1 (configuration not stated),-5%
COc1ccc(-c2ccc3nnc(CNC(=O)Cc4cccc(OC)c4)n3n2)cc1,6%
CCn1nccc1C(=O)NCCc1ncc(C)n1C1CC1,8%
O=C(NCc1ccc(F)cc1)C1COC2(CCCCC2)N1C(=O)c1cccc(F)c1 (configuration not stated),-15%
COc1cccc(CN2Cc3cc(NC(=O)c4ccccc4)ccc3OC(C)C2=O)c1OC (configuration not stated),-12%
CN1CCC(C(=O)NCc2c[nH]c3ncccc23)CC1,8%[70.6 µM]
COc1ccc(OC)c(CNC(=O)c2noc(-c3ccc(C)cc3)n2)c1,4%
Cc1nn2c(c1-c1ccccc1-c1ccccc1)N(C(=O)c1cnccn1)CCC2,1%[70.6 µM]
CN(Cc1ccc(-c2ccccc2)cc1)Cc1cccc(OC(F)(F)F)c1,0%
CC(C)N1C(=O)C2(CCCCC2)C1C(=O)NCc1cc(F)cc(F)c1 (configuration not stated),-8%
COCCNc1ncccc1-c1cc(-c2ccccc2)nc2c(C)noc12,1%[70.6 µM]
# Next compounds follow:
SMILES,NPR1 antag
COc1ccc(-n2nc(C3CCCN(C(=O)c4ccc(Cl)nc4)C3)[nH]c2=O)cc1 (configuration not stated),10%
O=C(NCc1ccccc1)N1CCCC(c2noc(COc3ccccc3F)n2)C1 (configuration not stated),0%
O=C1C(N2CCN(S(=O)(=O)c3cccs3)CC2)CCN1Cc1ccccn1 (configuration not stated),0%
Nc1cc(N2CC[C@@H](N3CCN(CCc4ccccc4)CC3)[C@H](O)C2)nc(N)n1,-6%
C[C@H]1[C@@H]2[C@@H](O)C([C@H](C)C(=O)NCc3cccnc3)CC[C@@]2(C)CC[C@@H]1NC(=O)c1ccccn1 (some centres not stated),4%
O=C(NC[C@H]1CCc2ccccc2O1)C1CCN(C(=O)C2CC2)CC1,1%
O=C(NCc1ccccc1)NCC1CCCN(Cc2ccccn2)C1 (configuration not stated),5%
Cc1nc(-c2c3n(c(=O)n(Cc4ccc(F)c(F)c4)c2=O)CCCC3)no1,0%
O=C(Nc1cccc(F)c1)N1CCc2c(nc3cc(-c4ccccc4Cl)[nH]n3c2=O)C1,-11%
C=CCNC(=O)N[C@H]1[C@H](O)[C@@H](N(C)CCN(C)C)[C@@H]2OC[C@H]1O2,2%[70.6 µM]
CN(C)c1cc(N2CCCC(NC(=O)Cc3ccccc3F)C2)ncn1 (configuration not stated),4%
COCCC(=O)N1CCCCCCNC(=O)[C@@H]2CCCC[C@@H]21,0%
O=C1NCCCCCCN(C(=O)c2ccoc2)[C@H]2C[C@H](C(=O)N3CCN(c4ccccn4)CC3)C[C@@H]12,0%
Cc1nnnn1CCC(=O)Nc1nn(C)c2cccc(N3CCOCC3)c12,-1%
COc1ccc(F)c(CN2CCCC(O)(CN3CCN(CCO)CC3)C2=O)c1 (configuration not stated),0%
CCN(CCNC(=O)C1Cn2cccc2C(=O)N1)Cc1ccccc1 (configuration not stated),1%
COc1ccccc1CCc1nc(C2CC(=O)N(c3ccc(F)c(Cl)c3)C2)no1 (configuration not stated),?
O=C(c1cccnc1)N1CCC(c2nnc(Cn3cccn3)n2C2CC2)CC1,5%
CN(C)Cc1nnc(C2CC(NC(=O)c3ccc4scnc4c3)C2)n1C (configuration not stated),-6%&17%
CCc1nn(-c2ccc(OC)cc2)c(Oc2ccccc2F)c1CCC(=O)NCCOC,1%
CC(C)NC(=O)Cc1cccn1-c1ccc(F)cc1,-15%
CCNC(=O)N1CCCN(S(=O)(=O)c2ccccc2)CCC(=O)NCC1,0%
Cc1ccc(C2(C(=O)N3CCC4(CC3)CNC(C(=O)O)C4)CC2)cc1 (configuration not stated),11%
CO[C@H]1C(=O)N(C(C)C)[C@H]1C1CCN(C(=O)c2ccc3ncccc3c2)CC1,8%
Cc1cccc(C)c1NC(=O)Cn1c(=O)n(-c2ccc(F)cc2)c(=O)c2c1cc(C)n2C,5%
# (more compounds)
SMILES,NPR1 antag
CN1CCN(c2ccc(-c3cc4c(ccn4C)c(C(=O)NCCc4ccccn4)n3)cc2)CC1,-12%
CCCC(=O)N1[C@@H]2CC[C@H]1CC(NC(=O)c1cnc(C)cn1)C2 (some centres not stated),4%
Cc1csc(NC(=O)c2nc3c(o2)CCN(Cc2c(F)cccc2F)CC3)n1,3%[70.6 µM]
O=C(c1ccco1)N1CCC(Oc2cccc(F)c2)C1 (configuration not stated),-1%
c1ccc(-c2cnc([C@@H]3COCCN3Cc3ccncc3)[nH]2)cc1,6%[70.6 µM]
O=C(Nc1ccccc1)N1CCC(N2CCCNC2=O)CC1,26%&9%[70.6 µM]
CCOc1ccccc1C(=O)NC1CCN(c2cc(-c3ccc(OC)cc3)[nH]n2)C1 (configuration not stated),-19%
CC(C)CC(=O)N1CCCN(S(=O)(=O)c2ccccc2)CCC(=O)NCC1,5%
CC(C)(C)C(=O)N1CCC(c2nnc(Cn3cncn3)n2C2CC2)CC1,2%
O=C1CC(c2noc(COc3ccc(Cl)cc3)n2)CN1C1CCCCC1 (configuration not stated),-26%
CC1CCC(NC[C@H]2O[C@@H]3C[C@@H](CC(=O)N4CCOCC4)O[C@@H]3[C@@H]2O)CC1 (some centres not stated),8%[70.6 µM]
O=C(NCc1nc(-c2ncccn2)no1)C(c1cccnc1)N1CCCC1 (configuration not stated),3%
COc1cccc(CC(=O)N[C@@H]2CCC[C@@H](C(=O)NCc3cc(C)on3)CC(=O)N(C)C2)c1,-2%
O=C(Cn1nc2n(c1=O)CCCCC2)Nc1ccc(F)cc1,-12%
CC(=O)Nc1ccc(CN2C(=O)OC3(CCN(C(=O)c4ccnn4C)CC3)C2(C)c2ccccc2)cc1 (configuration not stated),-10%
Cc1nc2c(OCC(=O)c3ccccc3)cccn2c(=O)c1-c1cc(C)n(-c2ccc(Cl)cc2)n1,0%
CCCNC(=O)N(C1CCOCC1)C1CCN(C(=O)c2ccc(F)c(F)c2)CC1,0%
COC(=O)c1ccc(CN2C(=O)[C@@H]3C[C@@H](O)CN3C3(CN(CC4CC4)C3)C2=O)cc1,-1%[70.6 µM]
CC(C)CC(=O)Nc1ccc([C@H]2OCC(=O)N(C3CCOCC3)[C@@H]2CO)cc1,6%[70.6 µM]
CCOC(=O)c1cccc(NC(=O)N2CC[C@@H](CC(=O)NCc3ccc(OC)c(OC)c3)[C@@H](CC)C2)c1,6%
Cc1ccc(-c2nccn3cc(C(=O)N4CCN(C5CCN(C)CC5)CC4)nc23)cc1,-13%
COC(=O)[C@@H]1Cc2c([nH]c3ccccc23)[C@H]2C[C@@H](NCCc3cnc[nH]3)C[C@@H](c3ccccc3F)N21,-14%
COCCn1c(CN(C)CC2COc3ccccc3O2)cnc1S(=O)(=O)CC1CC1 (configuration not stated),-1%
O=C(c1ccccc1)N1CCn2c(nnc2-c2ccccc2)C1,1%&-12%[70.6 µM]
COc1ccccc1CNC[C@H]1O[C@@H]2C[C@@H](CC(=O)NCc3nccn3C)O[C@@H]2[C@@H]1O,10%[70.6 µM]
# (further entries)
SMILES,NPR1 antag
Cc1cc(C)cc(NC(=O)N2CCC(Oc3ncccc3C(=O)N3CCCCC3)C2)c1 (configuration not stated),0%
COc1cccc(-c2ccc3onc(C)c3n2)c1,0%[70.6 µM]
CCc1nc(-c2c3n(c(=O)n(Cc4ccccc4Cl)c2=O)CCCC3)no1,3%
Cc1cc(C)n(CCCN(C)C(=O)C2CC3(CCNCC3)CN2)n1 (configuration not stated),-1%
O=C(NCc1ccc(F)cc1)c1cc2n(n1)CC(c1ccc3c(c1)OCO3)OC2 (configuration not stated),0%
COc1ccc(-c2cc(N3CCC(NC(=O)c4cc(C)ccc4C)CC3)n[nH]2)cc1,-16%
O=C(c1ccc2nccn2c1)N1CCN(c2cnccn2)CC1,-1%
Cc1cc(C(=O)N2CC[C@H](NS(=O)(=O)c3cccs3)C[C@H]2C(=O)N[C@H](C)C(N)=O)n(C)n1,2%
COc1ccc(-c2nccn3cc(C(=O)O)nc23)cc1,-1%
O=C(NCCc1noc(-c2ccncc2)n1)c1ccccc1,-21%
CC(=O)c1ccc(NC(=O)N2C[C@@H]3C[C@H](C2)c2ccc(NC(=O)c4ccco4)c(=O)n2C3)cc1,4%
CC(C)CCC(=O)N1C[C@@H](CO)[C@H](c2nc(-c3ccncc3)no2)C1,3%
O=C(Cc1cccn1-c1cccc(Cl)c1)NCc1ccc(N2CCOCC2)cc1,-7%
O=C([C@@H]1C[C@H](Oc2ccccc2)CN1C(=O)c1ccsc1)N1CCOCC1,7%
CSCC(=O)N[C@H]1CCN2C(=O)c3ccc(Cl)cc3NC(=O)[C@H]12,-2%[70.6 µM]
COc1ccc(Cl)cc1NC(=O)N1CCCC(Cn2cnc3cccnc32)C1 (configuration not stated),-6%
CC1=C(C(=O)Nc2ccccc2)C(c2cccc(C)c2)N2C(CC(=O)NC(C)C)=CSC2=N1 (configuration not stated),?
O=C(CC1C(=O)NCCN1Cc1ccc(F)c(F)c1)NC1CCC1 (configuration not stated),-4%
CN(C)C[C@@H]1CN(Cc2ccccn2)C[C@H]1NC(=O)c1cc(Cl)ccc1F,-1%
CCC(CC)NC(=O)[C@H]1CCC[C@H]1NC(=O)c1ccc(OC)nc1,-2%
Cc1cn2nnc(C(=O)N3CCC(C(=O)NC4CCCCC4)CC3)c2c(=O)[nH]1,10%
CCNC(=O)N1CCCCCNC(=O)CC1c1ccccc1 (configuration not stated),-1%
COc1ccc(NC(=O)N[C@H]2C[C@@H](C(=O)N[C@H](Cc3c[nH]c4ccccc34)C(N)=O)N(C(=O)c3cccn3C)C2)cc1,-7%
O=C(Cc1n[nH]c(=O)c2ccccc12)NC1CCCc2c1[nH]c1ccccc21 (configuration not stated),-18%
COc1ccc2cc(C3CN(C(=O)Cc4ccc(O)cc4)CCO3)ccc2c1 (configuration not stated),?
O=C(c1ccc(C(F)(F)F)cc1)N1CCC2(C1)C(=O)N(Cc1ccccc1)c1ccccc12 (configuration not stated),?
CCCN1CCN(C(=O)c2cc(-c3ccc(F)cc3)cn2CC)CC1,-15%
CC1(C)C(=O)Nc2ccc(S(=O)(=O)N3CCCC(c4nn[nH]n4)C3)cc21 (configuration not stated),2%
COc1ccccc1-c1nc2nccc(-c3ccc4c(c3)OCCCO4)n2n1,-12%
O=C(CC1CCCCC1)N1CCCC(c2noc(COc3ccccc3F)n2)C1 (configuration not stated),-22%

# At a glance, part of the list above.
SMILES,NPR1 antag
Cc1cc(C)cc(NC(=O)N2CCC(Oc3ncccc3C(=O)N3CCCCC3)C2)c1 (configuration not stated),0%
COc1cccc(-c2ccc3onc(C)c3n2)c1,0%[70.6 µM]
CCc1nc(-c2c3n(c(=O)n(Cc4ccccc4Cl)c2=O)CCCC3)no1,3%
Cc1cc(C)n(CCCN(C)C(=O)C2CC3(CCNCC3)CN2)n1 (configuration not stated),-1%
O=C(NCc1ccc(F)cc1)c1cc2n(n1)CC(c1ccc3c(c1)OCO3)OC2 (configuration not stated),0%
COc1ccc(-c2cc(N3CCC(NC(=O)c4cc(C)ccc4C)CC3)n[nH]2)cc1,-16%
O=C(c1ccc2nccn2c1)N1CCN(c2cnccn2)CC1,-1%
Cc1cc(C(=O)N2CC[C@H](NS(=O)(=O)c3cccs3)C[C@H]2C(=O)N[C@H](C)C(N)=O)n(C)n1,2%
COc1ccc(-c2nccn3cc(C(=O)O)nc23)cc1,-1%
O=C(NCCc1noc(-c2ccncc2)n1)c1ccccc1,-21%
CC(=O)c1ccc(NC(=O)N2C[C@@H]3C[C@H](C2)c2ccc(NC(=O)c4ccco4)c(=O)n2C3)cc1,4%
CC(C)CCC(=O)N1C[C@@H](CO)[C@H](c2nc(-c3ccncc3)no2)C1,3%
O=C(Cc1cccn1-c1cccc(Cl)c1)NCc1ccc(N2CCOCC2)cc1,-7%
O=C([C@@H]1C[C@H](Oc2ccccc2)CN1C(=O)c1ccsc1)N1CCOCC1,7%
CSCC(=O)N[C@H]1CCN2C(=O)c3ccc(Cl)cc3NC(=O)[C@H]12,-2%[70.6 µM]
COc1ccc(Cl)cc1NC(=O)N1CCCC(Cn2cnc3cccnc32)C1 (configuration not stated),-6%
CC1=C(C(=O)Nc2ccccc2)C(c2cccc(C)c2)N2C(CC(=O)NC(C)C)=CSC2=N1 (configuration not stated),?

# Compound activity as filed in PubChem.
